From PubChem
Yeast UUG start: alters start codon recognition fidelity in yeast. S. cerevisiae UUG-firefly luciferase reporter, luminescence/redox ratio. activity score, % at 18.7 µM. 350,000 tested, 0.13% active. AID 602363;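 active means replicate mean at a twofold rise or more, about +100% in these data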;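 further: firefly luciferase made from a UUG start codon reports start codon fidelity; reporter light over untreated wells divided by growth signal over untreated wells; some hits fall short of that in this replicate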
PABP FP inh: blocks human PABP binding to poly(A) RNA; P11940; 290,000 tested, 1% active; fluorescence polarization; inhibition, % at 35 µM;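 active means 50% or more with normal probe brightness, or confirmed in later tests; about a fifth of its hits are not listed in these tables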;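 further: calls also rest on retests at 20 µM and on dose response follow-up; controls were probe without protein and protein plus probe with vehicle; some compounds called inactive have numbers as strong as hits; many hits fall short of the cut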
MT1-MMP act inh: inhibitors of human MT1-MMP activation; GFP/RFP ratio change, % at 20 µM; 360,000 tested, 0.061% active; HT1080 RFP-PRO-GFP cells, GFP/RFP ratio fluorescence, overnight; percent of plate control window, DMSO zero; AID 651647;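 active means GFP/RFP ratio change of at least 30% with cell ATP level not reduced by more than half and red fluorescence within 50% of control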; further: strong numbers were not always called active
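Test system: HT1080 RFP-PRO-GFP cells; Benchmarks: DMSO and RFP-L50D-GFP cell wells; Timing: cells overnight before dosing, compound overnight, 37 °C, 5% CO2; Compound: one 20 µM compound dose with 1% DMSO; Read-out: GFP/RFP fluorescence ratio.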
eIF4H FP inh: inhibitors of RNA binding by human eIF4H; Q15056; eIF4H fluorescence polarization binding assay; inhibition, % at 35 µM; 290,000 tested, 0.94% active; AID 2012;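 active means 50% or more with normal probe brightness, or confirmed in later tests; about a fifth of its hits are not listed in these tables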;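 further: calls also rest on retests at 20 µM and on dose response follow-up; 0% = protein and probe with vehicle and 100% = probe without protein; strong numbers were not always called active; many hits fall short of the cut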
CSC inhib: blocks cancer stem cells; cancer stem cell-like cells viability, luminescence; inhibition, % at 7.5 µM; 300,000 tested, 1.1% active;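 active means mean at 75% or more and at least half the replicates too; tested in HMLE shEcad cells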;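 further: 0% = median of negative and 100% = median of positive control wells; the first replicate is given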
Rce1 inhib: yeast Ras-converting enzyme inhibition; Q03530; yeast membranes, quenched prenylated peptide cleavage fluorescence; calls only; 290,000 tested, 0.27% active;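 active means fall in fluorescence gain of 50% or more versus controls, with final raw signal at or below 3038400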;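 further: plate controls were neutral control wells for no effect and wells lacking membranes for full effect; tested at 10 µM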
Target sequence (Q03530 whole entry, looked up): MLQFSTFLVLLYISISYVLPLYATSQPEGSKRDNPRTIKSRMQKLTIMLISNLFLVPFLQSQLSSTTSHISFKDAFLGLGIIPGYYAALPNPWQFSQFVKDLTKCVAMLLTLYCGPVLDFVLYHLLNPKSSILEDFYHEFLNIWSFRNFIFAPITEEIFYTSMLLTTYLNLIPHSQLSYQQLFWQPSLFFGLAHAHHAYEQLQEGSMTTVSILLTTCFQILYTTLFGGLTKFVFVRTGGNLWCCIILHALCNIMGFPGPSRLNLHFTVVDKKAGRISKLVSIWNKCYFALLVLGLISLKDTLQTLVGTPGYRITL
HIV Env fusion: blocks HIV Env-driven cell-cell fusion; HeLa-JRFL Env/CEM21 cell fusion, luciferase; inhibition, % at 12.3 µM; 360,000 tested, 1.1% active;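 active means mean replicate inhibition score of at least 50 and every replicate individually at or above 50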;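 further: 0% = plate neutral controls and 100% = maraviroc near 300 nM; one replicate is shown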
eIF4H FP inh retest: also measured in eIF4H FP inh; calls as there; inhibition, %; compound at 20 µM; confirmation average;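 mean of two retest wells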
PABP FP inh retest: also measured in PABP FP inh; calls as there; inhibition, %; compound at 20 µM; confirmation repeats;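 mean of two retest wells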
MT1-MMP act inh RFP: also measured in MT1-MMP act inh; calls as there; RFP signal change, %; measured here: RFP expression control read;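 0 = vehicle wells; hits needed this value within 50% of zero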
* marks the source's active call; other numbers are inactive results; i = inactive; / = no result given; & = joins results of further samples; [ ] = dose if it differs, or a comment. Rows were taken by chance. Share with any hit: about 3%.

SMILES	Yeast UUG start	PABP FP inh	MT1-MMP act inh	MT1-MMP act inh RFP	eIF4H FP inh	CSC inhib	Rce1 inhib	HIV Env fusion	others
O=C(CCC(=O)c1cccs1)OCc1nc2ccccc2s1	-1	-4	5	6	0	-6	i	-15
COc1ccc(CN2CCNC(=O)C2CC(=O)NCCCn2cccn2)c(OC)c1 (centres undefined)	/	6	1	5	4	-6	i	-10
Cc1ccc(/C=C2\SC(=S)N(CCCC(=O)Nc3cc(C)on3)C2=O)cc1	-58	3	2	3	-4	-4	i	41
CC1(C)CC(=O)C=C(c2ccc(-c3cnc4ccccc4c3)cc2)C1=O	-72	/	2	-2	/	/	/	-40
COC(=O)CNC(=O)CCC(=O)N1CCN(C(c2ccccc2)c2ccccc2)CC1	3	2	-8	-3	3	3	i	-11
CC1CCCN(C(=O)CSc2nnc(-c3cccs3)o2)C1 (centres undefined)	-21	0	-1	1	1	-6	i	-19
COc1ccc(-c2nnc(-c3ccccc3)o2)cc1OC	-11	10	-2	-2	8	-12	i	-104
O=C(CSc1ccc2ccccc2c1)Nc1ccncc1	-8	1	3	-18	-3	-14	i	/
NCc1c(O)ccc2ccccc12	/	2	/	/	-4	-5	i	-1
Cc1ccc(C(=O)NNC(=O)c2nn(-c3ccc(F)cc3)ccc2=O)cc1	-8	-5	5	3	6	0	i	-6
CC1=C(C(=O)N(C)C)CC(CC(=O)NCCCN(C)C)C(=O)N1CCC1=CCCCC1 (centres undefined)	46	/	-1	4	/	/	/	1
Cc1cccc(N2CCN(S(=O)(=O)c3ccc4c(c3)CCN4C(=O)CCC(=O)O)CC2)c1C	/	4	-3	-1	14	-3	/	-49

Quoted from above (four entries):
SMILES	Yeast UUG start	PABP FP inh	MT1-MMP act inh	MT1-MMP act inh RFP	eIF4H FP inh	CSC inhib	Rce1 inhib	HIV Env fusion	others
O=C(CCC(=O)c1cccs1)OCc1nc2ccccc2s1	-1	-4	5	6	0	-6	i	-15
COc1ccc(CN2CCNC(=O)C2CC(=O)NCCCn2cccn2)c(OC)c1 (centres undefined)	/	6	1	5	4	-6	i	-10
Cc1ccc(/C=C2\SC(=S)N(CCCC(=O)Nc3cc(C)on3)C2=O)cc1	-58	3	2	3	-4	-4	i	41
CC1(C)CC(=O)C=C(c2ccc(-c3cnc4ccccc4c3)cc2)C1=O	-72	/	2	-2	/	/	/	-40

Additional compounds follow.
SMILES	Yeast UUG start	PABP FP inh	MT1-MMP act inh	MT1-MMP act inh RFP	eIF4H FP inh	CSC inhib	Rce1 inhib	HIV Env fusion	others
CCOC(=O)N1CCN(C(=O)c2cccn3c(=O)c4c5c(sc4nc23)CCCC5)CC1	/	5	1	-5	-6	4	i	-5
O=C(COC(=O)CNC(=O)c1cccc([N+](=O)[O-])c1)Nc1ccccc1OC(F)F	/	4	-1	3	24	-1	i	-4
CCN(C(=O)CN1CCN(c2ccccc2O)CC1)c1c(N)n(Cc2ccccc2)c(=O)[nH]c1=O	/	-12	3	5	-8	-17	i	/
CCO[C@H]1OC(C(=O)NC2CC2)=C[C@@H](c2ccccc2)[C@@H]1CCCO	3&-7	-10	2	-3	-12	-7	i	-6[16.7 µM]
COc1cc(/C=C/C(O)=C/C(=O)/C=C/c2ccc(O)cc2)ccc1O	-12	/	-24	-9	/	25	/	-8
C=CCn1c(-c2ccc(F)cc2)n[nH]c1=S	/	-4	2	5	-10	-6	i	1
O=C(NC(NC(=S)Nc1ccc(Cl)cc1)C(Cl)(Cl)Cl)c1ccco1 (centres undefined)	/	0	5	-6	1	18	i	3
COc1cc(/C=C/C(=O)OCC(=O)N2CCC(Cc3ccccc3)CC2)ccc1O	-13	-15	-9	-12	1	/	i	11
O=C(CSc1ncnc2nc[nH]c12)c1ccc(Cl)cc1	-6	1	10	9	3	102*	i	39
CCC(CC)C(=O)N1CCCC(c2nc(-c3cccs3)no2)C1 (centres undefined)	-4	-6	7	-3	-4	3	i	36
CN(C)c1ccc(C(=O)N2CCCC(N3CCN(Cc4ccc5c(c4)OCO5)CC3)C2)cc1 (centres undefined)	-24	-3	3	-5	3	-13	i	-3
O=C(CS(=O)(=O)c1cn(Cc2cccc(F)c2)c2ccccc12)N1CCOCC1	-8	-3	1	2	3	-3	/	-5

Some of these compounds in order of molecular weight, smallest number first:
SMILES	Yeast UUG start	PABP FP inh	MT1-MMP act inh	MT1-MMP act inh RFP	eIF4H FP inh	CSC inhib	Rce1 inhib	HIV Env fusion	others
O=C(CSc1ncnc2nc[nH]c12)c1ccc(Cl)cc1	-6	1	10	9	3	102*	i	39
O=C(COC(=O)CNC(=O)c1cccc([N+](=O)[O-])c1)Nc1ccccc1OC(F)F	/	4	-1	3	24	-1	i	-4
O=C(NC(NC(=S)Nc1ccc(Cl)cc1)C(Cl)(Cl)Cl)c1ccco1 (centres undefined)	/	0	5	-6	1	18	i	3

The results go on.
SMILES	Yeast UUG start	PABP FP inh	MT1-MMP act inh	MT1-MMP act inh RFP	eIF4H FP inh	CSC inhib	Rce1 inhib	HIV Env fusion	others
COc1ccc(CC(=O)Nc2nc(C(C)(C)C)cs2)cc1	-10	5	-23	-27	2	2	i	-7
Cc1c(C(=O)/C=C/N(C)C)nnn1-c1ccc(F)c(Cl)c1	3	-9	-12	-2	-12	-2	i	-1
CC(C)C[C@H](NC(=O)CCn1nnc2ccccc2c1=O)C(=O)O	/	15	-4	2	-6	-2	i	10
CN1CCN(NC(=O)CN2C(=O)S/C(=C\c3c(Cl)cccc3Cl)C2=O)CC1	/	-5	4	1	8	-10	i	17
O=C(Cc1nnc(NC(=O)Nc2ccc(F)cc2)s1)Nc1ccccc1	-21	-2	2	6	-9	-8	i	7
NS(=O)(=O)c1cccnc1Nc1cccc(Cl)c1	5	10	-1	0	1	-12	i	/
CCN(CC)C(=O)c1[nH]cnc1C(=O)N[C@@H](CC(C)C)C(=O)OC(C)(C)C	-20	-1	-1	3	-7	-29	i	1
Cc1cccc(N2C(=O)C(CC(=O)Nc3cccc(F)c3)N(CCc3ccncc3)C2=O)c1 (centres undefined)	/	-18	1	2	-3	-1	/	29
COc1ccc2cc(C(c3nnnn3CCc3ccccc3)N3CCC(O)CC3)c(=O)[nH]c2c1 (centres undefined)	-8	18	-10	5	22	/	/	-45
CC1(C(=O)Nc2cccc3c2CCCC3)CCN1C(=O)CCC1CCCC1 (centres undefined)	-11	/	-4	-5	/	/	/	-1
Cc1cccc(-n2nnc(C(=O)NCc3ccco3)c2N)c1	-12	3	-3	3	9	-4	i	-11
COc1ccc(-c2cc(C(F)(F)F)nc(SCCC(=O)N3CCN4CCCC4C3)n2)cc1 (centres undefined)	2	-1	-4	-1	-3	/	/	/
CCOc1ccc(NC(=S)NCCCN2CCN(C3CCCCC3)CC2)cc1	-16	-2	3	3	20	21	i	/
O=[N+]([O-])c1cccc(-c2cc3cccc[n+]3cc2-c2cccc([N+](=O)[O-])c2)c1	-15	-2	1	2	2	-3	i	8
O=C(CSc1nc2ccccc2c(=O)[nH]1)c1cccs1	-5	1	1	1	2	3	i	/
COc1ccc(-n2c(=O)c3c4c(sc3n(CC(=O)NCC3CCCO3)c2=O)CCCC4)c(OC)c1 (centres undefined)	14	-8	-8	-12	-2	-8	i	7
Cc1sccc1C1C(C#N)=C(N)SC(N)=C1C#N	/	114	/	/	121	-9	i	/	eIF4H FP inh retest=-9;PABP FP inh retest=4
O=C(COC(=O)CCC1CCCC1)Nc1nc2c(F)c(F)c(F)cc2s1	-13	0	1	2	-16	-1	i	12
CC(=O)COC(=O)c1ccc2noc(-c3ccccc3)c2c1	-5	12	-7	-2	-16	-15	/	-12
CCN1CCN(c2cc(C)c3cc(NC(=O)CCC(=O)Nc4ccc(OC)cc4OC)ccc3n2)CC1	-12	-7	-10	-8	-6	-14	i	3
CCCn1nc(C(=O)N2CCCc3ccccc32)c2ccccc2c1=O	/	11	0	-5	2	-3	i	28
Cc1onc(-c2ccccc2)c1C(=O)N1CCN(c2ncccc2C(F)(F)F)CC1	6	-8	1	-5	-17	-8	i	8
COc1ccccc1[C@@H]1C(c2cccc(C)c2)=NN(c2ccc(Br)cc2)[C@H]1C(=O)N1CCOC1=O	2	/	0	1	/	/	/	2
O=C(Nc1cccc2ccccc12)N(CCO)C1CCS(=O)(=O)C1 (centres undefined)	-11	5	-6	-5	12	-2	i	24

Quoted at random: 6 records from the list, in no set order.
SMILES	Yeast UUG start	PABP FP inh	MT1-MMP act inh	MT1-MMP act inh RFP	eIF4H FP inh	CSC inhib	Rce1 inhib	HIV Env fusion	others
O=C(Nc1cccc2ccccc12)N(CCO)C1CCS(=O)(=O)C1 (centres undefined)	-11	5	-6	-5	12	-2	i	24
CCCn1nc(C(=O)N2CCCc3ccccc32)c2ccccc2c1=O	/	11	0	-5	2	-3	i	28
CC(=O)COC(=O)c1ccc2noc(-c3ccccc3)c2c1	-5	12	-7	-2	-16	-15	/	-12
O=[N+]([O-])c1cccc(-c2cc3cccc[n+]3cc2-c2cccc([N+](=O)[O-])c2)c1	-15	-2	1	2	2	-3	i	8
CCN1CCN(c2cc(C)c3cc(NC(=O)CCC(=O)Nc4ccc(OC)cc4OC)ccc3n2)CC1	-12	-7	-10	-8	-6	-14	i	3
Cc1sccc1C1C(C#N)=C(N)SC(N)=C1C#N	/	114	/	/	121	-9	i	/	eIF4H FP inh retest=-9;PABP FP inh retest=4

Next results
SMILES	Yeast UUG start	PABP FP inh	MT1-MMP act inh	MT1-MMP act inh RFP	eIF4H FP inh	CSC inhib	Rce1 inhib	HIV Env fusion	others
Oc1ccc(N=Nc2ccccc2)cc1	-9	-11	0	0	-5	21	i	-67
OC[C@@H]1CN(Cc2cccs2)C[C@H](n2cnc3c(NCc4ccncc4)ncnc32)O1	-14	/	-3	3	/	/	/	-7
COc1ccc(N/C=C(\C#N)S(=O)(=O)c2ccc(Cl)cc2)c(OC)c1	-2	-12	-1	-4	-6	33	i	-1
COc1ccccc1C1C(C(N)=O)=C(C)Nc2ncnn21 (centres undefined)	-12	2	4	5	-8	-15	i	-59
Cc1cccc2cc(C(c3nnnn3Cc3ccc4c(c3)OCO4)N3CCCC3)c(=O)[nH]c12 (centres undefined)	-9	30	-1	-4	7	-5	i	/
Clc1cccc(Cc2c(-c3ccco3)nc3ccc(Cl)cn23)c1	-16	/	-2	-2	/	/	/	24
O=C(Nc1ccc2c(c1)OCO2)N1CCN(Cc2ccco2)CC1	/	9	3	5	-6	-7	i	17
CC(C)(C)c1ccc(C(=O)NCC(=O)N/N=C/c2cccs2)cc1	-18	-5	1	2	-12	-9	i	14
